HSV replic up: enhancers of HSV replication in host cells, fold increase, host cell viability; HSV replication augmentation in cells; maximum fold increase; 220,000 tested, 0.005% active; AID 1956, 2009;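 active = peak rise of 1.5-fold or more in the series; inconclusive = self-fluorescent or not available for retest; tested in PC3 cells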;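 note: first round at 10 µM; read as green reporter fluorescence; hits show the peak of a series up to 25 µM; 1 = signal of infected wells without compound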
GALR2 agonist: GALR2 receptor agonists, primary screen, cell-based; Galanin receptor type 2 (Homo sapiens), O43603; activation, %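 (tested at 5 µM)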; AID 803, 2007; GALR2-expressing cells, agonist activation read-out; 140,000 tested, 0.48% active;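 active = above mean plus 3 SD of all compounds, about 5% in these data, not always enough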;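 note: 0% = vehicle buffer wells and 100% = reference agonist at full effect; tested in CHO reporter cells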
Target sequence (O43603 whole entry, looked up): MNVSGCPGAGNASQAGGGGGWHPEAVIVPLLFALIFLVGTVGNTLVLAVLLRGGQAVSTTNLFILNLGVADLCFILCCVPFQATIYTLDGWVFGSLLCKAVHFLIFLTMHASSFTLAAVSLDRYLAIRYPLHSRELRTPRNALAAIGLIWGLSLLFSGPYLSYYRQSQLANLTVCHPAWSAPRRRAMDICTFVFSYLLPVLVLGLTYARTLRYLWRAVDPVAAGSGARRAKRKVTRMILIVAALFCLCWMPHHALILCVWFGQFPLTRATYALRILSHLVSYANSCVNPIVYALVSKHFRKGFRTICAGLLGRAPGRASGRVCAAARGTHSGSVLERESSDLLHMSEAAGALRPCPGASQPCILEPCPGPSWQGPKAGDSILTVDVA
PKD1 kinase inh: inhibitors of human PKD1 kinase, biochemical, fluorescence polarization; PKD1 kinase fluorescence polarization assay; inhibition, %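 (about 10 µM by stock and volumes)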; 200,000 tested, 0.056% active;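 active = inhibition of 50% or more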;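 note: controls were vehicle for no effect and a reference inhibitor for full effect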
INS promoter inh: inhibitors of insulin promoter-driven GFP, primary screen, imaging, TRM-6 cells (human fetal islet line), eGFP reporter, cell count; reporter expression induced with tamoxifen; inhibition, % at 2 µM; 130,000 tested, 0.9% active; AID 1273, 2008;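 active = inhibition above the mean plus 3 SD, with well images judged a real hit on visual review, cut at about 60% in these data, passing the limit was not always enough; inconclusive = inhibition over the cutoff but images rejected on review; inactive = inhibition not above the cutoff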
RGS16-Gao: modulators of RGS16 binding to Galphao, primary screen, biochemical, human proteins, multiplexed bead flow cytometry. Regulator of G-protein signaling 16 (Homo sapiens) + Guanine nucleotide-binding protein …. bead-based flow cytometry RGS16-Galphao binding, fluorescence; actives lie on both sides. binding response (% of control), % at 10 µM. 220,000 tested, 0.38% active. AID 1441, 2008;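 active = below 25% or above 175%, edge rows of some plates excepted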;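 note: Galphao activated by GDP with aluminum fluoride before binding; 100% = wells without compound and 0% = beads without RGS; some results beyond the cut were filed as inactive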
Target sequence (O15492 whole entry, looked up): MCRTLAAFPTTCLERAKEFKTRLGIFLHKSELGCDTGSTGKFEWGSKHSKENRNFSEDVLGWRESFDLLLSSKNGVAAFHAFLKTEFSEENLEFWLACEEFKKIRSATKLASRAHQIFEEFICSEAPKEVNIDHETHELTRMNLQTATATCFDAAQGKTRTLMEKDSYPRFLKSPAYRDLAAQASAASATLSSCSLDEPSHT
Target sequence (P09471 whole entry, looked up): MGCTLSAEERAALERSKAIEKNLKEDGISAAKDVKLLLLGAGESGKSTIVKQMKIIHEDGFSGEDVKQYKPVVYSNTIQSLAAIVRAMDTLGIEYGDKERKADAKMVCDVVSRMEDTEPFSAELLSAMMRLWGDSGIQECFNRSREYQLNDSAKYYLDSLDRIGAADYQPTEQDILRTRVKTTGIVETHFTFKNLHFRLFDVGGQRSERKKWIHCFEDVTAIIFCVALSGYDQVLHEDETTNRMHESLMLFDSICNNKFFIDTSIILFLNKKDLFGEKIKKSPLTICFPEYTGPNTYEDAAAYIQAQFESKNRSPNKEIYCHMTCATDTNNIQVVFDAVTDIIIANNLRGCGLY
INS promoter inh cell count: also measured in INS promoter inh; calls as there; normalized cell count, %; measured here: cell count, toxicity; reference of the scale not given here;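 cells exposed to compound for 48 h; stained nuclei by imaging scaled within each plate; lower means fewer cells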
HSV replic up primary fold: recorded beside HSV replic up, whose call it bears; fold increase; compound at 10 µM; measured here: primary screen fold increase 10 uM; tested in PC3 cells;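 GFP signal in the first replicate; 1 = infected wells without compound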
Active calls of the source: *; i = inactive; ? = inconclusive; · = no result given.

Structure,INS promoter inh cell count,GALR2 agonist,INS promoter inh,RGS16-Gao,PKD1 kinase inh,HSV replic up primary fold,HSV replic up
Cc1cc(C(C#N)c2cccc(Cl)c2)n2ncnc2n1 (stereo not drawn),232,-1.5,-3,103,-6,·,·
Cc1cc(C)c(NC(=O)c2ccc(S(=O)(=O)N3CCOCC3)cc2)c(C)c1,·,-2.7,·,105,-3,1,i
O=C(c1cc(Cl)nc2ccccc12)N1CCc2ccccc2C1,·,·,·,95,4,1,i
Cc1cccc(-n2nc(C)c3c(C(=O)O)cc(-c4cccs4)nc32)c1,46,·,0,101,-4,0.92,i
Cc1cccc(C)c1NC(=O)CN1C(=O)S/C(=C\c2cccn2C)C1=O,123,-2.2,-4,98,-6,0.92,i
Cc1ccc(NC(=O)CN(C)c2ccc(S(=O)(=O)N3CCN(C)CC3)cn2)cc1,·,-0.1,·,101,-1,0.98,i
CCCCC(=O)Nc1ccc(C(=O)Nc2ccc(S(=O)(=O)N3CCCC3)cc2)cc1,123,-1.8,-29,102,-9,0.89,i
c1ccc2nc(N3CCCC3)c(N3CCCC3)nc2c1,·,-0.5,·,99,-6,0.93,i
Cn1c(=O)[nH]c(Nc2ccccc2)c([N+](=O)[O-])c1=O,·,·,·,99,-2,0.81,i
O=C(CSc1nc2ccccc2n1Cc1ccccc1)N/N=C/c1ccccc1C(=O)O,·,·,·,96,·,1.2,i
CN(C)C(=O)c1ccc(OCC(F)(F)F)nc1,·,·,·,98,·,1.1,i
CC(C)c1cccc(C(C)C)c1NC(=O)COc1nncc2ccccc12,102,-0.8,-81,105,-13,1,i
COc1ccc(CN(Cc2ccc(C(=O)O)cc2)C(=S)Nc2ccc(C)cc2)cc1OC,·,·,·,105,-3,0.96,i
Cc1nc(OCc2ccccc2)c2sc3nc4c(cc3c2n1)COC(C)(C)C4,125,-0.8,-11,101,-7,·,·
COCCCNC(=O)CC(NCCCOC)C(=O)O (stereo not drawn),149,-0.4,-50,104,5,0.94,i
O=C(CCC1CCCCC1)Nc1c2c(nn1-c1ccc(F)cc1)CS(=O)C2 (stereo not drawn),·,-2.4,·,97,-22,0.98,i
CCOCCCn1c(C)nc2c(c1=O)c1nc3ccccc3nc1n2CCC1=CCCCC1,68,-0.1,12,105,4,0.88,i
O=C(COc1ccc([N+](=O)[O-])cc1)NC(C(=O)O)C(O)c1cccc([N+](=O)[O-])c1 (stereo not drawn),·,·,·,104,8,0.88,i
CN(C)/N=C/c1ccc(Sc2ccc([N+](=O)[O-])cc2[N+](=O)[O-])o1,52,-2.2,-43,126,-6,0.93,i
O=C1c2ccccc2C(=O)N1Cc1nc(-c2ccccn2)no1,105,-3.0,-262,104,-2,0.74,i

Part of the list above in order of length of the SMILES, ascending.
Structure,INS promoter inh cell count,GALR2 agonist,INS promoter inh,RGS16-Gao,PKD1 kinase inh,HSV replic up primary fold,HSV replic up
CC(C)c1cccc(C(C)C)c1NC(=O)COc1nncc2ccccc12,102,-0.8,-81,105,-13,1,i
Cc1nc(OCc2ccccc2)c2sc3nc4c(cc3c2n1)COC(C)(C)C4,125,-0.8,-11,101,-7,·,·
CCOCCCn1c(C)nc2c(c1=O)c1nc3ccccc3nc1n2CCC1=CCCCC1,68,-0.1,12,105,4,0.88,i

Next part.
Structure,INS promoter inh cell count,GALR2 agonist,INS promoter inh,RGS16-Gao,PKD1 kinase inh,HSV replic up primary fold,HSV replic up
O=C(O)c1cc(O)ccc1N=Nc1ccccc1,·,·,·,102,·,0.78,i
O=C(O)c1cccc(NC2=C(N3CCOCC3)C(=O)c3ccccc3C2=O)c1,·,·,·,98,·,0.96,i
CCOC(=O)C1CCN(c2c(C(=O)c3ccccc3)cnc3ccc(Cl)cc23)CC1,·,·,·,103,1,1,i
COc1ccc(/C=N/Nc2nnc(C)n2N)cc1OC,·,·,·,102,3,0.79,i
Cc1cc(NC(=O)C2CCCN(S(=O)(=O)c3cnc[nH]3)C2)ccc1Br (stereo not drawn),·,-2.3,·,93,-5,0.83,i
CCOC(=O)COc1ccccc1/C=C\[N+](=O)[O-],85,-3.5,53,87,-5,0.55,i
COc1ccc(-c2[nH]ncc2CN2CCCN(c3ccccc3)CC2)c(F)c1,·,·,·,103,-4,0.98,i
Cn1c(SCc2c(F)cccc2Cl)nnc1-c1cccs1,164,-1.6,38,98,-1,0.75,i
O=C(Cc1cn2ccsc2n1)Nc1ccccn1,·,-2.1,·,102,12,1,i
CCCNC(=O)Cn1c2ccccc2c2nc(=O)cc(C)n21,·,-4.2,·,98,-11,·,·
CCN(CC)CCOc1nnc(-c2ccc(C)cc2)c2ccccc12,93,-0.4,12,104,-1,0.78,i
Cc1cc(C)nc(NS(=O)(=O)c2ccc(Br)cc2)n1,66,0.1,-357,108,-8,0.86,i
CCN(CC)C(=O)C(C)OC(=O)c1ccc(O)cc1 (stereo not drawn),151,-1.7,-50,103,-4,0.77,i
Nc1cc(C(=O)O)ccc1N1CCCCC1,42,-0.8,-107,110,2,1.1,i
CCOCCCNC(=S)NC1CC2CCC(C1)N2Cc1ccccc1 (stereo not drawn),·,·,·,180,3,0.89,i
C=CCN=C(C)C1=C(O)C(C)OC1=O (stereo not drawn),·,-1.7,·,102,4,0.97,i
O=C(N/N=C/c1ccc(Br)s1)c1cccs1,·,·,·,99,·,0.8,i
N=C1/C(=C\c2ccc(SCc3ccccc3)o2)C(=O)N=C2SC=NN12,110,·,33,108,9,1.1,i
CCOC(=O)c1c(C)[nH]c(C(=O)COC(=O)CSCC(=O)N(CC)CC)c1C,130,-3.4,16,98,8,0.9,i
OCCNCCCOc1cc(Cl)ccc1Cl,106,·,36,107,-2,0.94,i
O=[N+]([O-])c1cccc(NC(=S)NCc2ccncc2)c1,·,·,·,97,17,0.85,i
Cn1c(CCNC(=O)c2ccco2)nc2cc(NS(=O)(=O)c3ccccc3)ccc21,69,-0.2,64,99,7,1.1,i
CCOc1ccccc1N1CC(C(=O)Nc2c(C)n(C)n(-c3ccccc3)c2=O)CC1=O (stereo not drawn),·,·,·,99,1,1.1,i
CCOC(=O)c1cc(C)n(-n2cnnc2)c1C,123,-3.3,26,102,0,0.78,i
C=CCN1CC(c2nc3ccccc3n2CCOc2ccccc2)CC1=O (stereo not drawn),·,-0.1,·,108,-2,0.72,i
COc1ccc(C(=O)NNC(=O)CCCCC(=O)NNC(=O)c2ccc(OC)cc2)cc1,·,·,·,101,-6,0.94,i
O=C(Cn1c(=O)n(-c2ccccc2)c(=O)c2sccc21)NCc1ccccc1,105,·,13,100,1,0.85,i
COn1c(-n2nc(C)cc2C)nc2ccccc2c1=O,·,-4.1,·,97,-10,0.89,i
CC(C)Sc1nnc(-c2c[nH]c3ccccc23)n1C,·,-3.4,·,111,-7,0.92,i
COC(=O)c1c(O)c2ccccc2[nH]c1=O,161,-1.8,7,104,-1,1,i
N#CCC(=O)N/N=C/c1ccc(OCc2ccccc2)cc1,·,·,·,96,3,0.96,i
COC(=O)C1=C(C(=O)OC)C2(OC1c1cccc(F)c1)C(=O)c1ccccc1C2=O (stereo not drawn),81,-3.4,64,94,-5,0.91,i
O=C1CN(C(=O)c2cccc(S(=O)(=O)N3CCCC3)c2)c2ccccc2N1,·,·,·,93,·,0.81,i
O=C(N/N=C/c1cccnc1)c1ccc(CN2c3cccc4cccc(c34)S2(=O)=O)cc1,100,·,0,101,-4,1,i
COc1ccc(CCN2C(=O)CC(NCCc3ccc(S(N)(=O)=O)cc3)C2=O)cc1OC (stereo not drawn),58,-0.7,17,102,-1,0.95,i
Cc1ccc(OCc2n[nH]c(=S)n2-c2ccccc2)cc1,·,·,·,100,5,1,i
CN(CCNC(=O)c1cccc(N2CCCC2=O)c1)Cc1ccccc1,132,-1.6,22,105,-10,1,i
CCCCC(=O)NC(c1ccc([N+](=O)[O-])cc1)c1c(O)ccc2ccccc12 (stereo not drawn),136,-0.7,-5,101,-1,0.96,i
COc1cc(N2CCCC2)c(OC)cc1/C=C(/C#N)c1cccc(Br)c1,98,-1.7,7,146,-8,·,?
Cc1cc(C(=O)N/N=C2\CC(=O)CC(C)(C)C2)c(C)n1-c1ccc(F)cc1,165,0.5,27,102,4,0.91,i
CCOc1ccc(C2C=C(c3ccccc3)Nc3ncnn32)cc1 (stereo not drawn),82,-4.5,0,96,-7,1.1,i
O=c1[nH]ccc2c([N+](=O)[O-])cccc12,·,·,·,97,0,0.91,i
COc1cc(S(=O)(=O)NC2CCCCC2C)ccc1-n1cnnn1 (stereo not drawn),·,·,·,103,10,0.89,i
O=C(Nc1ccc(Br)cc1)c1cccnc1N1CCCCC1,120,-1.5,-34,96,1,0.98,i
COCCCNC(=O)CCc1nc2cccnc2n1Cc1ccccc1,93,0.8,-21,98,-1,0.76,i
COc1ccc(/C=C/C(=O)C2(O)CCCCC2)cc1,·,·,·,105,·,0.79,i
COc1ccc(C(=O)Nc2cc(C)ccc2NC(=O)COc2ccccc2)cc1,95,-2.2,-7,112,-2,1,i
COCCNC(=O)CSc1nc2nc(C)cc(C)n2n1,·,-3.3,·,102,-8,0.89,i
O=C(Oc1ccccc1C(=O)N1CCOCC1)c1ccc(F)cc1,·,·,·,109,·,0.98,i
O=c1c2ccccc2c(=O)n(Cc2ccccc2)n1Cc1ccccc1,102,-0.9,-21,62,-2,1,i

Next compounds follow.
Structure,INS promoter inh cell count,GALR2 agonist,INS promoter inh,RGS16-Gao,PKD1 kinase inh,HSV replic up primary fold,HSV replic up
CC(=O)NC(Cc1cc(C)ccc1C)C(=O)N1CCN(C(=O)Nc2ccc(C(C)=O)cc2)CC1 (stereo not drawn),97,-3.7,-70,110,-8,0.95,i
O=C(O)c1ccc(-n2cccc2/C=N\NC(=O)c2cc3cc(Br)ccc3o2)cc1,·,·,·,97,·,0.91,i
O=C1C2C3C=CC(C4CC34)C2C(=O)N1/N=C/c1ccc(-c2ccc(Cl)cc2[N+](=O)[O-])o1 (stereo not drawn),120,-2.1,54,100,-5,0.82,i
CC1(C)CC(=O)c2c(-c3cccnc3)n[nH]c2C1,111,1.3,-14,99,-9,1,i
Cc1ccc(-c2nn(CCC(=O)NCC3CCCO3)c(=O)c3ccccc23)cc1 (stereo not drawn),·,-2.8,·,103,-1,0.95,i
CC(C)C(C(=O)NCC1CCCO1)N(Cc1ccco1)C(=O)CNS(=O)(=O)c1ccc(F)cc1 (stereo not drawn),98,-1.7,-109,95,-5,1,i
COc1ccc(NS(=O)(=O)c2ccc(Oc3c(C#N)cccc3C#N)cc2)cc1,·,·,·,97,·,1.3,i
Cc1ccccc1C1NS(=O)(=O)N=C1N (stereo not drawn),89,-2.9,-35,84,-7,1,i
CCOC(=O)c1cnn2c(N)c(C#N)cnc12,·,·,·,99,-2,0.98,i
COc1cc2c(cc1NC(=O)CN(C)Cc1cccc(OC)c1OC)oc1ccccc12,138,0.2,13,105,-6,0.95,i
CCOC(=O)C1CCN(S(=O)(=O)c2ccc(Cl)cc2OC)CC1,138,0.2,-30,104,-2,0.84,i
COc1cccc(C(=O)NN2CC(O)=C(c3nc4ccccc4n3C)C2=N)c1,·,·,·,104,-1,1,i
COc1ccc(/C=C/C(=O)c2sc(-c3ccccc3)nc2C)cc1,·,-1.4,·,96,3,0.94,i
CCN(CC)S(=O)(=O)c1cc(NS(=O)(=O)c2cccc(C(=O)O)c2)ccc1C,·,·,·,102,-7,0.87,i
COC(=O)c1cc2nc(-c3ccccc3)cc(C)n2n1,94,0.0,-50,99,-9,0.92,i
C=CCn1c(N)nc2ccccc21,90,-3.3,55,99,-15,0.99,i
Cc1ccc(-n2c(O)c(C=Nc3ccccc3-c3n[nH]c(=S)[nH]c3=O)c3ccccc3c2=O)cc1C,·,·,·,94,-7,0.85,i
O=c1oc(-c2cccs2)nc2scc(-c3cccs3)c12,86,-0.8,12,99,-7,·,·

Source: PubChem (several laboratories)
